Screening results from PubChem.
ALR H2O2 inh: inhibitors of human ALR sulfhydryl oxidase, primary screen, biochemical, H2O2 detection, HRP-luminol luminescence, single point | FAD-linked sulfhydryl oxidase ALR (Homo sapiens), P55789 | purified ALR, DTT oxidation | inhibition, % (test concentration not listed) | 290,000 compounds, 3.8% hits | AID 485317, 2010;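 active = mean and each replicate at 75% or more; inconclusive = only one of the two met; inactive = neither met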;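 also: stock transfer was 7.5 nL into about 7.5 µL; 0% = neutral wells and 100% = wells with inactivated enzyme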
RanGTP-Impb inh: inhibitors of RanGTP-importin-beta interaction, primary screen, biochemical, FRET, CFP-Ran, YFP-importin-beta, homogeneous. cell-free CFP-Ran/YFP-importin-beta FRET ratio. inhibition, % (test concentration not listed). 300,000 compounds, 1.1% hits;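 active = most replicates above 15%; inconclusive = exactly half above 15%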;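 also: 0% = DMSO wells and 100% = Ran loaded with GDP instead of GTP; wells of about 40 µL received 100 nL stock; the first replicate is given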
HNF4A DNA FP: change in binding of human HNF4A to DNA, primary screen, biochemical, fluorescence polarization, FITC-DNA | 1 h | activity change, % at 10 µM | 360,000 compounds, 0.3% hits; in the data active = activity change above about 30%, passing the limit was not always enough;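 also: controls were the assay level and a saturating level of protein; the project sought stronger binding though the title names inhibitors; some compounds called inactive have numbers as strong as hits; positive values seem to mean higher polarization but the record does not say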
Beta2AR agonist: beta2AR agonists driving receptor internalization, primary screen, cell-based, FAP fluorogen, flow cytometry | Beta-2 adrenergic receptor (Homo sapiens), P07550 | Am2.2-beta2AR cells; reference of the scale not given here | response, % (no concentration beside the values) | 340,000 compounds, 0.43% hits;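 active = response above a set limit, near 3 SD of response in nonfluorescent compounds, cut at about 42% in these data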;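 also: stock transfer was 100 nL into about 11 µL; a reference agonist was the positive control; negative values mostly stem from fluorescent compounds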
Vif TR-FRET: inhibitors of Vif binding to APOBEC3G peptide, primary screen, biochemical, TR-FRET, GST-Vif 1-94, biotin-A3G peptide, dose response retest (AID 1117319); Virion infectivity factor (Human immunodeficiency virus type 1 group M subtype B (isolate …; TR-FRET GST-Vif / biotin-A3G peptide binding; higher % means a stronger effect; test concentration not given here; strong numbers were not always called active; 260,000 compounds, 0.57% hits; inhibition, %; hits with a dose series show IC50 in µM;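 active = above the screen mean plus three standard deviations and confirmed in dose response; inconclusive = results disagree or hit not tested in dose response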;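 also: Vif residues 1-94 fused to GST binding biotinylated APOBEC3G peptide 110-148; 0% = full assay without inhibitor and 100% = GST in place of GST-Vif; retest series ran down from 100 µM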
LANA-H2A inh: blockers of LANA interaction with H2A/H2B – biochemical, FP readout, HTS, primary screen; AID 2629, 2010; Protein LANA1 (Human herpesvirus 8 type P (isolate GK18)), Q9QR71; 320,000 compounds, 0.6% hits; inhibition, % (concentration not given with the values); cell-free LANA-H2A/H2B peptide, fluorescence polarization; in the data active = inhibition mostly above about 10%, no sharp cut-off; inactive = mostly below about 6.7%;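 also: stock transfer was 7.5 nL into about 10 µL; 0% = median of vehicle wells and 100% = median of positive control wells; one replicate is shown; the record names a cut of 25% in any replicate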
Target sequence (Q9QR71 whole entry, looked up): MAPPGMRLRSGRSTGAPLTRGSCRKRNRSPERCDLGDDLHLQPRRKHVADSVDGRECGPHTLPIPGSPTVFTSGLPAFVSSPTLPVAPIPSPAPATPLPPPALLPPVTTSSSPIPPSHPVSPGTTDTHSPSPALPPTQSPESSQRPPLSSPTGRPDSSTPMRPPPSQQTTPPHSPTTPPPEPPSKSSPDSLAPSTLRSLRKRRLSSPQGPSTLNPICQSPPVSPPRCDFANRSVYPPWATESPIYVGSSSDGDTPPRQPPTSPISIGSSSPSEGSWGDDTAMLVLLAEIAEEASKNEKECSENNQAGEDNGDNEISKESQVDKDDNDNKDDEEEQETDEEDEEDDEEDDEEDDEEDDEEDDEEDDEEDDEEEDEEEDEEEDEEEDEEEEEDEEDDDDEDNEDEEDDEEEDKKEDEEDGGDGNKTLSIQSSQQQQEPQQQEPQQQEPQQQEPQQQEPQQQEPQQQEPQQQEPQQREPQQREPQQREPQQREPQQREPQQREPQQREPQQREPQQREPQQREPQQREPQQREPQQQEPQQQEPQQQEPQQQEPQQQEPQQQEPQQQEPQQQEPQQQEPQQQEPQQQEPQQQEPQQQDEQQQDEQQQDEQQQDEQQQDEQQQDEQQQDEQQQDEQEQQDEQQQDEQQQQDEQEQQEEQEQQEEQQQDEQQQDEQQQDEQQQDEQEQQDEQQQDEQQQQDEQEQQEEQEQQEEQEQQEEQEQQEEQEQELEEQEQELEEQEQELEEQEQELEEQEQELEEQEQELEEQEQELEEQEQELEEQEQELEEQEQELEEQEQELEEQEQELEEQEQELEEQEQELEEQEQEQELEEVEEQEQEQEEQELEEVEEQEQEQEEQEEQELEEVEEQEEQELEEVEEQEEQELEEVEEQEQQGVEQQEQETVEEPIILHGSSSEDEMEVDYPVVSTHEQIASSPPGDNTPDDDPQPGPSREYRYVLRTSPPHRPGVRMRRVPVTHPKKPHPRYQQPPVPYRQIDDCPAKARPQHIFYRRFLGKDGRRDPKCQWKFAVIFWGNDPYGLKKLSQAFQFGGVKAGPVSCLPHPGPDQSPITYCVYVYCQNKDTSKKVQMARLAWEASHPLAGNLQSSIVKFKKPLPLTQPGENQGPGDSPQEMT
Calb FLC: C. albicans growth inhibition with fluconazole, primary screen, CaCi-2 strain, Alamar Blue fluorescence; C. albicans CaCi-2 (fluconazole-resistant clinical isolate) + fluconazole, 48 h; growth inhibition, % (concentration not given with the values); 300,000 compounds, 0.57% hits; AID 1979, 2009;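 active = most replicates above 75%; inconclusive = exactly half above 75%; inactive = most below 75%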;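 also: all wells also contain fluconazole at 8 µg/ml as a sub-toxic cotreatment; 0% = median of DMSO wells and 100% = median of geldanamycin control wells; wells of about 8 µL received 7.5 nL stock; the first replicate is given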
* marks the source's active call; other numbers are inactive results; ? = inconclusive; . = no result given.

Structure,ALR H2O2 inh,RanGTP-Impb inh,HNF4A DNA FP,Beta2AR agonist,Vif TR-FRET,LANA-H2A inh,Calb FLC
O=C(Nc1ccc2nccnc2c1)Nc1ccccc1Cl,-177,-1.1,1.0,5,-2%,-1.3,4
COc1ccc(C2=NN(CCC(=O)NCc3cccs3)C(=O)CC2)cc1,-15,-3.1,1.0,-2,.,-0.6,-4
CCOc1ccc(OCCOC(=O)C2CCN(S(=O)(=O)c3ccc(C)c(C)c3)CC2)cc1,-1,2.2,0.8,3,2%,0.1,-4
O=[N+]([O-])c1ccc(Cl)c(S(=O)(=O)Nc2cccc(S(=O)(=O)NC3=NCCC3)c2)c1,-30,.,2.5,5,5.6µM*,2.0,.
COc1ccc(CNCC(O)(c2ccc(Cl)cc2)c2ccc(Cl)cc2)cc1,-2,-2.2,-1.1,25,-5%,6.7,-20
COc1cc(C(C)=O)ccc1OCC(=O)NCCCn1nc(C)cc1C,-11,.,-2.9,-1,.,-0.1,.
c1cc2c(cc1-c1[nH]ncc1CN1C[C@H]3CC[C@H]1C3)OCO2,-2,-3.9,3.9,5,?,4.3,-11
Cn1ccc(/C=N/N=C2/NC(=O)CS2)n1,-3,-1.6,-1.4,-7,-3%,2.1,0
CCOC(=O)N1CCN(C(=O)C2CCCN(Cc3nc(-c4ccc(Cl)cc4)oc3C)C2)CC1 (configuration not stated),0,1.6,2.3,-11,0%,1.6,12
Cc1cc(NC(=O)OC(C)C)ccc1-c1ccc(NC(=O)OC(C)C)cc1C,91*,-0.8,-3.0,4,-2%,6.6,13
C=CCONC(=O)Cc1ccccc1,.,.,1.8,4,11%,.,.
O=C(CNC(=O)c1cccc(F)c1)N/N=C/c1cccc([N+](=O)[O-])c1,-2,3.2,0.3,-3,-3%,-7.3,-12
CCCn1c(SCC(=O)N2CCCCC2)nc2c1c(=O)n(C)c(=O)n2C,.,4.5,1.8,7,6%,-0.9,8
N#C/C(=C/c1ccc([N+](=O)[O-])cc1)C(=O)Nc1ccccc1O,?,-0.7,-0.2,39,31%,-2.3,0
O=C1CCCN1c1ccc(S(=O)(=O)N2CCC(c3ccccc3)CC2)cc1,-2,1.6,-3.5,-8,67%,4.0,21
Cc1ccc(NC(=O)CSc2n[nH]c(-c3ccccn3)n2)cc1,0,-0.5,-2.0,-9,.,5.0,-3
C=CCc1c(C)nc(-c2ccccc2)nc1N/N=C(\C)c1ccccc1,.,4.0,-1.1,3,1%,.,18
CCOC(=O)c1c(NC2OC(=O)c3c2ccc(OC)c3OC)sc(C(=O)OC(C)(C)C)c1C (configuration not stated),4,0.3,2.4,1,.,-1.5,0
NCCCC[C@H]1CN=C(N)N1CCc1cccc2ccccc12,-9,-6.8,-2.2,3,.,2.1,-1
CC(C)CC(NC(N)=O)C(=O)Nc1ccc2c(c1)OCO2 (configuration not stated),-14,.,3.4,0,7%,0.5,-19
COc1cc(SC)ccc1C(=O)NCCc1ccccc1,-8,4.7,2.8,-2,-1%,-0.8,-4
CC(C)(C)c1ccc(/C=C2\Oc3cc(O)ccc3C2=O)cc1,.,2.8,11,6,.,0.7,-4
Cc1cc(C)nc(NS(=O)(=O)c2ccc(NC(=O)CCCN3C(=O)c4ccccc4C3=O)cc2)n1,-1,-4.5,0.2,-5,2%,0.7,-12
O=C(NCC(c1ccco1)N1CCc2ccccc2C1)c1cccc(F)c1 (configuration not stated),-2,-1.2,1.2,7,-9%,-3.3,4
CCOC(=O)C1CCCN(C(=O)C2CCCN(S(=O)(=O)c3ccc4c(c3)oc(=O)n4C)C2)C1 (configuration not stated),-6,2.4,2.0,1,2%,0.0,5
CCOC(=O)[C@@H]1[C@H]2COc3ccccc3[C@H]2N2C(=O)N(c3cccc(Cl)c3)C(=O)[C@@]12C,1,2.9,-0.1,4,.,1.6,3
CC1CCN(C(=O)CCc2nnc3ccc(NCc4ccco4)nn23)CC1,6,0.5,-2.4,1,8%,2.7,-12
COc1ccc(F)cc1CN1CCN(CC(=O)N2CCc3ccccc32)CC1,0,6.1,1.4,-4,.,-2.9,-17
CCn1c(C)nc2cc(C(=O)NN=Cc3ccccc3OC(F)F)ccc21,-7,.,3.8,1,.,-1.8,.
COc1ccc(C(=O)CSc2ccccc2C(=O)O)cc1,3,-1.6,-0.5,-5,.,-1.2,16
C/C(=N\NC(=O)c1cc(C)[nH]n1)C(C)(C)C,22,-1.3,0.1,-2,0%,-2.9,-3
Cc1ccc(Nc2ccccc2)nn1,-8,-1.9,6.3,5,.,-3.9,3
CC1CCC2C(=O)N(c3ccc(S(=O)(=O)c4ccccc4)cc3)C(=O)C2C1 (configuration not stated),2,1.3,-0.3,1,0%,3.8,-2
CCOc1ccc2c(c1)ncn2Cc1ccccc1,8,-5.1,-3.0,0,.,1.3,-2
COc1ccccc1-c1c(C(F)(F)F)oc2cc(OS(C)(=O)=O)ccc2c1=O,-11,7.1,2.8,-3,2%,-0.8,34
CC(=O)c1ccc(N(CC(=O)NCc2ccc3c(c2)OCO3)C(=O)c2csnn2)cc1,3,-1.6,-0.9,1,3%,8.3,7
Cc1ccc(-c2noc(CNS(=O)(=O)c3ccccc3)n2)cc1,-13,0.0,3.6,3,1%,-2.3,2
Cc1noc(C)c1NC(=O)N(C)C[C@H]1Oc2ccc(NC(=O)NC3CCCCC3)cc2C(=O)N([C@H](C)CO)C[C@@H]1C,4,.,-2.6,2,.,2.6,.
O=C(O/N=C1\CCS(=O)(=O)c2sccc21)c1c(F)cccc1F,1,0.3,-0.4,0,-7%,-1.9,-9
CCCN(C(=O)COC(=O)CSc1ccc([N+](=O)[O-])cc1)C1CCS(=O)(=O)C1 (configuration not stated),.,.,-0.9,15,1%,2.1,.
O=C(CN(c1cccc(Cl)c1)S(=O)(=O)c1ccc(Cl)cc1)NCc1ccccn1,-3,7.2,-3.3,3,-6%,-11,5
CSc1cc(-c2ccc(Cl)cc2)[nH]c(=O)c1C#N,-12,-2.1,-6.4,1,?,-11,-13
CCOc1ccc(NC2OC(C)C(O)C(O)C2O)c([N+](=O)[O-])c1 (configuration not stated),-23,-3.3,-2.1,-4,5%,-4.2,-4
C=CCNC(=O)C12CCC(C)(C(=O)[C@H]1Br)C2(C)C (some centres not stated),5,3.6,-1.0,-3,-16%,4.9,-4
Cc1ccc2c(c1)nc(NCCCO)n2C,20,2.3,1.4,5,-3%,-1.7,-9
O=C(COc1ccc2ccccc2c1)NNC(=O)Cc1cccc2ccccc12,-8,-1.0,3.2,-16,-7%,-0.7,-3
O=C(COc1ccc2c(-c3ccccc3)cc(=O)oc2c1)NCC(O)c1ccccc1 (configuration not stated),-16,2.4,1.0,-5,.,-0.1,1
CCOC(=O)C1CCCN(C2=NC(=O)/C(=C/c3ccc(O)c(OC)c3)S2)C1 (configuration not stated),.,-2.1,9.8,-72,10%,-4.1,-3
COc1ccc(NC(=O)C(c2ccc(OC)cc2)N(Cc2ccco2)C(=O)CC2NC(=O)NC2=O)cc1 (configuration not stated),.,2.7,-3.0,9,4%,-6.7,3
CC(=O)Nc1ccc(N(C(=O)c2ccco2)C(C(=O)NC2CCCC2)c2ccc(N3CCOCC3)cc2)cc1 (configuration not stated),-31,0.5,5.0,-8,3%,2.1,-9
COc1ccc(CNC(=O)CCNS(=O)(=O)c2ccc3c(c2)oc(=O)n3C)cc1,-8,5.5,0.8,0,.,1.0,31
CCCc1cnc(N2CCN(C(=O)c3ccc(OC)cc3)CC2)nc1,-3,-0.5,-0.3,0,4%,4.4,-4
O=C(CCNC(=O)c1ccccc1Cl)NN=Cc1ccccc1[N+](=O)[O-],5,.,2.8,2,-2%,-0.8,.
CCCc1cc(=O)c2ccc(OC/C(C)=N/O)cc2o1,-12,-5.7,1.5,0,-7%,3.2,-2
COC(=O)c1ccccc1NC(=O)c1ccccc1N(C)S(=O)(=O)c1ccccc1,3,0.5,6.4,-15,11%,8.6,12
CC1(C)CC(=O)C=C(NCCCNC2CCCCC2)C1,-5,-3.7,1.2,-8,26%,2.0,-7
Cc1cccc(-n2cnc3c(c2=O)c2nc4ccccc4nc2n3Cc2ccco2)c1,4,0.6,-6.5,9,12%,-5.4,9
Cc1ccc(S(=O)(=O)NCC(=O)N2CCC(C)CC2)cc1,-22,4.4,2.1,-2,3%,-2.6,13
CCOC(=O)Cc1c(C)c2c(C)nn(-c3ccccc3)c2oc1=O,0,-2.1,1.4,-6,-2%,4.4,10
O=C(NCCO)/C(=C\c1ccco1)NC(=O)c1ccco1,-6,6.1,-4.8,-4,.,1.0,1

Further records.
Structure,ALR H2O2 inh,RanGTP-Impb inh,HNF4A DNA FP,Beta2AR agonist,Vif TR-FRET,LANA-H2A inh,Calb FLC
Cc1n[nH]c(=O)c2c(NC(=O)CSc3nn(-c4ccccc4)c(=S)s3)oc(C)c12,99*,-0.1,3.0,2,10%,-2.0,-12
Cc1c(OC(C)C(=O)NC2CC(C)(C)NC(C)(C)C2)ccc2c3c(c(=O)oc12)CCC3 (configuration not stated),0,-1.9,2.3,-9,.,4.3,5
Cc1ccccc1NC(=S)NC(NC(=O)c1ccco1)C(Cl)(Cl)Cl (configuration not stated),0,0.6,-2.5,4,?,0.4,10
Cc1ccc(-c2cc(-c3ccccc3)c(C#N)c(Br)n2)cc1,-1,-2.5,2.5,-22,-199%,2.5,15
Cc1ccc(CSC2=NCCN2C(=O)c2ccco2)cc1,95*,-2.1,-5.3,17,7%,-0.6,0
CN(c1ccccc1)S(=O)(=O)c1cccc(NC(=O)CCNC(=O)c2ccc([N+](=O)[O-])cc2)c1,-2,.,-2.7,4,-1%,0.5,.
c1ccc2sc(SCSc3nc4ccccc4s3)nc2c1,-7,1.5,1.3,-5,6%,3.9,1
CC(=O)c1c(COC(=O)c2cccc(C)c2)nc2ccccc2[n+]1[O-],.,0.6,-2.8,1,6%,-3.2,-10
COc1cc(NS(=O)(=O)c2ccc(F)cc2)c(OC)cc1NC(=O)C1CC1,.,7.0,.,.,1%,.,17
O=C(CN(C(=O)CCC(=O)Nc1ccccn1)c1cccc(F)c1)NCc1ccc(F)cc1,-1,?,0.7,-2,25%,1.4,12
O=C(O)CCCC(=O)Nc1cc([N+](=O)[O-])ccc1O,.,-8.0,2.0,-9,28%,-1.9,-5
CCOC(=O)c1ccc(N(CC2CO2)S(=O)(=O)c2ccc(C)cc2)cc1 (configuration not stated),.,.,-1.9,-4,8%,.,.
COc1ccc(/C=C/C(=O)OCC(=O)N2CC(=O)Nc3ccccc32)cc1,-6,-5.5,0.7,-4,.,-1.6,-2
O=[N+]([O-])c1ccc(CSc2ccc(S(=O)(=O)N3CCCCCC3)cn2)cc1,.,.,-3.4,1,1%,.,.
CCN(CC)c1ccc(NC(=O)c2ccc(=O)[nH]c2)cc1S(=O)(=O)Nc1ccc(OC)cc1,.,-1.0,-1.9,3,18%,.,2
NS(=O)(=O)c1ccc(CCNC(=O)c2cnccn2)cc1,1,2.0,-2.6,-3,.,0.9,7
C=CCSc1nnc(-c2ccc(Cl)cc2Cl)o1,-8,1.8,2.3,-10,67%,-1.3,14

Outcome played no part in choosing rows. About 6.3% of those tested had a hit in this group.
